# Compound activity as filed in PubChem.
# KCNQ2 enhance – enhances the rat KCNQ2 potassium channel | CHO-K1 KCNQ2, FluxOR thallium flux fluorescence; stronger effect = higher value | B-score at 10 µM | actives 0.54% (n = 310,000);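 active = fluorescence ratio B-score at least 3 SD of library B-scores, with initial fluorescence B-score within 3 SD, cut at about 5.3 in these data; same plate scores as AID 2156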;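 also: B-score of peak minus minimum over baseline fluorescence ratio after K+ and Tl+ stimulus; positive B-score means potentiation of KCNQ2 with more thallium influx and brighter signal; only the inactives scoring about 0 or higher are listed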
# Target sequence (O88943 whole entry, looked up): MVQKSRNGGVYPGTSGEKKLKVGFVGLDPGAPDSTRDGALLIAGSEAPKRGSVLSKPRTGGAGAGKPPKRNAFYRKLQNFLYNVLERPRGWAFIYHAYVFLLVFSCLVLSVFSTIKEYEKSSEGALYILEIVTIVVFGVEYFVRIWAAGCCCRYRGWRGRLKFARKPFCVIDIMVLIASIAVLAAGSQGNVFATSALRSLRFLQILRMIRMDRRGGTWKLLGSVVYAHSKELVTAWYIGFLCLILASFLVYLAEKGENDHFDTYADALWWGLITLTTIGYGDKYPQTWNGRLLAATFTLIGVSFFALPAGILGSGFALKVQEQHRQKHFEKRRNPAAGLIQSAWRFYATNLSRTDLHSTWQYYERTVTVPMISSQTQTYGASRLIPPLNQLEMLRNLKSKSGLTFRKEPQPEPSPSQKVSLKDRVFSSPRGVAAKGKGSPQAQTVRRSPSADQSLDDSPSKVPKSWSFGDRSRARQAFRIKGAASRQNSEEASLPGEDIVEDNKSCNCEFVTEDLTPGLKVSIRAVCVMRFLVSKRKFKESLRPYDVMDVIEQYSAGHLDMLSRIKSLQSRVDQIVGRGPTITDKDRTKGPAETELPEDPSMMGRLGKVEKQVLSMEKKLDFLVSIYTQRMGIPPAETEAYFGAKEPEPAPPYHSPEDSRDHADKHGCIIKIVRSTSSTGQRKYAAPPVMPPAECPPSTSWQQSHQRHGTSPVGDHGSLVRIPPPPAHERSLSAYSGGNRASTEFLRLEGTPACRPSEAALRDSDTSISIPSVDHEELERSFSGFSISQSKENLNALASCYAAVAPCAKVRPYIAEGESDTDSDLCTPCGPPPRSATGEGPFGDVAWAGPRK
# KCNQ2 enhance baseline – further read-out of KCNQ2 enhance, marked with its call; B-score; compound at 10 µM; measured here: initial fluorescence intensity artifact check;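 brightness before thallium and not channel activity; 0 = typical well and far values either way flag optical interference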
# Starred values were filed as active, the others as inactive. Only part of the results is shown; the hit share may differ from the screen's.
structure	KCNQ2 enhance	KCNQ2 enhance baseline
COc1ccc(CC(=O)OCC(=O)Nc2cccnc2Cl)cc1OC	0.78	-0.91
CSc1cccc(NC(=O)/C=C/c2ccccc2)c1	0.12	1.88
CCc1ccc(NC(=O)C2=CC(c3ccc(OC)cc3)=NS(=O)(=O)N2C)cc1	1.69	-1.54
CN(C)C(=O)N1CCN(S(=O)(=O)c2ccc3ccccc3c2)CC1	0.51	0.32
C=CCn1c(SC(C)C(=O)Nc2ccc(F)c(F)c2F)nnc1C1CC1 (stereo not given)	0.51	1.31
O=C1C2C3C=CC(C4CC34)C2C(=O)N1/N=C/c1ccc(-c2ccc([N+](=O)[O-])cc2)o1 (stereo not given)	0.83	-1.1
CC(=O)Nc1cccc(N/C(N)=N/c2nc(C)cc(C)n2)c1	0.67	0.14
O=c1c2c3c(sc2nc2n1CCCCC2)C(O)CCC3 (stereo not given)	1.05	0.54
Cc1cc(NC(=O)C2=C(O)c3ccccc3S(=O)(=O)N2C)no1	0.69	-0.9
CCNc1ccc2noc3c2c1C(=O)c1ccccc1-3	0.14	0.47

# (more compounds)
structure	KCNQ2 enhance	KCNQ2 enhance baseline
CCOC(=O)c1cn(CC)c2ccc(S(=O)(=O)N3CCC(C)CC3)cc2c1=O	1.99	-0.04
COCCCNC(=O)Cn1c(=O)n(CC(=O)N2CCCCC2)c(=O)c2sccc21	1.61	0
CSc1sccc1/C=N/O	0.78	0.59
CCNc1nc(C)nc2c1oc1ccccc12	0.22	0.52
O=c1[nH]c2ccccc2nc1CCc1ccccc1	0.18	3.02
COc1ccc(S(=O)(=O)N(C)c2ccc(C(=O)NCc3ccncc3)cc2)cc1	0.72	-1.23
COC(=O)C(C)Oc1ccc(-c2nccc(-c3ccc(F)cc3)n2)cc1 (stereo not given)	0.02	0.26
CCOC(=O)C(NCCCCl)c1ccccc1 (stereo not given)	1.12	0.46
Cc1c(NC(=O)C2CCCN2C(=O)c2cccs2)c(=O)n(-c2ccccc2)n1C (stereo not given)	0.45	-0.41
O=C(CCn1cnc2ccccc21)N/N=C/c1ccccc1O	2.4	0.93

# (cont.)
structure	KCNQ2 enhance	KCNQ2 enhance baseline
CCOc1cc(N2CCOCC2)c(OCC)cc1NC(=O)C(C)C	1.03	-0.01
COC(=O)CC(=O)CSc1nc(C)cc(C)c1C#N	0.73	-0.78
CCOC(=O)N=Nc1c(O)n(CC)c2ccccc12	0.58	-0.45
Cc1cn(C2OC(COC(=O)c3ccccc3)C(O)C2O)c(=O)[nH]c1=O (stereo not given)	0.04	-0.68
COc1ccc2[nH]c3c(=O)n(CCCN4CCOCC4)cnc3c2c1	0.01	-1.9
O=C(O)CSc1ncn[nH]1	1.24	0.13
NC(=O)COc1c(-c2ccc(Br)o2)oc2ccccc2c1=O	1.24	-1.07
O=C(NC1CC1)C1C2C3C4CC5C3C5C4C12 (stereo not given)	1.96	2.68
Cc1ccc(S(=O)(=O)N(Cc2ccccc2)c2ccccc2C(=O)NCc2cccnc2)cc1	0.03	2.81
Cc1nc(N)sc1-c1csc(Nc2ccc(S(N)(=O)=O)cc2)n1	0.44	-0.02

# Additional results follow.
structure	KCNQ2 enhance	KCNQ2 enhance baseline
O=C(C1CCC(CNS(=O)(=O)c2ccc(F)cc2)CC1)N1CCOCC1 (stereo not given)	1.2	-0.12
O=C(CN(C(=O)CNC(=O)c1cccs1)c1ccc(F)cc1)NC1CCCCC1	0.65	1.37
COc1ccccc1-n1cnc2cc(NCc3ccccc3O)ccc21	1.03	1.07
CCCC1CCc2c(sc(NC(=O)OCC)c2C#N)C1 (stereo not given)	0.86	-0.78
CCCOc1ccc(OCCNC2CCCC2)cc1	2.62	-2.34
Cc1ccc(COc2coc(CN3CCN(C(=O)c4ccco4)CC3)cc2=O)cc1	0.22	-1.82
COC(=O)c1cc(S(=O)(=O)Nc2nn(C)c3cccc(F)c23)oc1C	0.86	-0.39
CCn1cc(C(=O)NN)c(=O)c2cc(F)c(N3CCOCC3)cc21	0.69	0.24
S=C(NCc1ccco1)Nc1ccc(Cl)cn1	0.44	0.66
O=C(O)CCN1C(=O)/C(=C\c2ccc(OCc3ccccc3)c(OCc3ccccc3)c2)SC1=S	0.13	0.17

# Reformatted as labelled records: part of the list above.
CCCOc1ccc(OCCNC2CCCC2)cc1
  KCNQ2 enhance: 2.62; KCNQ2 enhance baseline: -2.34

O=C(CN(C(=O)CNC(=O)c1cccs1)c1ccc(F)cc1)NC1CCCCC1
  KCNQ2 enhance: 0.65; KCNQ2 enhance baseline: 1.37

# Continuation.
structure	KCNQ2 enhance	KCNQ2 enhance baseline
COC(=O)c1c(N2C(=O)CC(Sc3ncccc3C(=O)O)C2=O)sc(C)c1C (stereo not given)	0.91	-1.47
Cc1ccc(CN(C)C(=O)C2CCC(=O)N(C3CCCCCC3)C2)cc1 (stereo not given)	0.1	-2.16
CCNc1nc(NCC)n2c(SCC(=O)Nc3ccccc3)nnc2n1	0.89	0.13
CCOc1ccc(CNS(=O)(=O)c2c(C)nc3sccn3c2=O)cc1OC	0.16	2.58
CC(=O)Nc1ccc(NC(=O)C2CCCCN2S(=O)(=O)c2ccc(C(C)(C)C)cc2)cc1 (stereo not given)	2.4	0.43
COc1cccc(CNC(=O)CNC(=O)N2CC(=O)Nc3ccccc32)c1	0.1	0.26
CCCn1c(=O)c(C(=O)NCc2ccco2)c(O)c2ccccc21	0.02	-1.56
O=C1CC(c2ccccc2)CC(O)=C1C=NCCN1CCN(Cc2ccccc2)CC1 (stereo not given)	1.85	0.12
CCOC(=O)c1cc(CC)sc1NC(=O)CC1Sc2ccc(C(F)(F)F)cc2NC1=O (stereo not given)	0.77	0.1
CC(C(c1cccs1)c1c(N)n(C)c(=O)n(C)c1=O)[N+](=O)[O-] (stereo not given)	0.04	-0.02

# Further compounds
structure	KCNQ2 enhance	KCNQ2 enhance baseline
Cc1ccnc(SC2CC(=O)N(c3ccc(Cl)cc3)C2=O)n1 (stereo not given)	1.19	0.13
O=C(O)c1ccc(N/N=C/c2cccc(C(F)(F)F)c2)cc1	0.03	-0.64
Cc1cc(NC(=O)CS(=O)(=O)Cc2ccccc2)no1	0.3	1.09
COc1ccc(CCNC(=O)CCCCCNc2nc(=S)[nH]c3ccccc23)cc1OC	0.81	-1.01
COc1ccc(OCC(=O)N2CCN(S(=O)(=O)c3ccc(Cl)cc3)CC2)cc1	0.01	0.23
CC(C)CC(=O)Nc1nnc(CCc2ccccc2)s1	0.48	0.94
CC1(C)CCc2cc(CN3CCN(c4ccccn4)CC3)ccc2O1	1.67	1.21
COc1ccc(S(=O)(=O)NCc2cccnc2)cc1NC(=O)c1ccc(Cl)cc1	1.18	1.28
O=C(NCc1cccnc1)c1cccc(NC(=O)c2ccco2)c1	0.44	1.13
O=C1CCCN1CCCNc1ccc2nnc(CCC(=O)N3CCN(c4ccccc4)CC3)n2n1	1.53	0.52

# Further records
structure	KCNQ2 enhance	KCNQ2 enhance baseline
CC1(C)CC(=O)c2sc(NS(=O)(=O)Cc3ccccc3)nc2C1	0.02	0
CC(=O)Nc1nc2c(c3c1c(=O)oc1ccccc13)CCCC2	1.19	-0.76
CC1CCC2(CC1)NC(=O)N(CC(=O)c1ccc(Cl)s1)C2=O (stereo not given)	0.22	1.36
Cc1ccc(CCC(=O)Nc2ccc(CC(=O)O)cc2)o1	0.06	0.65
CCCc1c(NC(=O)Nc2ccc(F)cc2)cnn1-c1ccc(Cl)cc1	2.31	-1.22
CN(C)c1nc(N(C)C)nc(N2CC(=O)N(c3ccccc3)C2=N)n1	1.77	-0.01
COc1ccc(OC)c(C(=O)CSc2nnc(-c3cccs3)n2C)c1	0.04	1.61
CCCS(=O)(=O)N1CCC(C(=O)NCCN2CCC(Cc3ccccc3)CC2)CC1	0.03	-1.83
COc1ccc(N(C(=O)C(C)C)S(=O)(=O)c2cccc([N+](=O)[O-])c2)cc1	0.03	-0.73
CCOC(=O)N1CCC(NC(=O)CN2C(=O)COc3ccc(C(C)(C)C)cc32)CC1	0.47	0.1

# The closing two records of the section before are carried over, then new ones follow:
structure	KCNQ2 enhance	KCNQ2 enhance baseline
COc1ccc(N(C(=O)C(C)C)S(=O)(=O)c2cccc([N+](=O)[O-])c2)cc1	0.03	-0.73
CCOC(=O)N1CCC(NC(=O)CN2C(=O)COc3ccc(C(C)(C)C)cc32)CC1	0.47	0.1
CCOC(=O)C1=C(C)NC(=O)NC1c1c(O)ccc2ccccc12 (stereo not given)	1.13	0.62
C[C@H](NC(=O)OC(C)(C)C)C(=O)N/N=C/c1ccc2nccnc2c1	0.88	-0.81
CCOc1ccc(OCc2ccc(C(=O)O)o2)cc1	1.22	-0.47
COc1ccc(C(=O)Nc2ccc(N3CCCC3)cc2)cc1	0.07	-0.01
CCOc1ncccc1C(=O)N(C)CC1COc2ccccc2O1 (stereo not given)	0.03	0.28
COc1ccc(CCC(=O)NCc2cn3ccccc3n2)cc1	0.27	2.22
O=C1C2CC=C(Cl)CC2C(=O)N1CNc1ccccn1 (stereo not given)	1.87	0.91
Cc1ccccc1-n1c(-c2cccnc2)n[nH]c1=S	0.7	0.01
Cc1nn(C)cc1CN(C)C(=O)CC12CC3CC(CC(C3)C1)C2	0.13	0.17
O=C(Nc1cccc(Cl)c1)Nc1ccc2c(c1)OCO2	0.4	-0.02

# A section of the results above:
structure	KCNQ2 enhance	KCNQ2 enhance baseline
COc1ccc(CC(=O)OCC(=O)Nc2cccnc2Cl)cc1OC	0.78	-0.91
CSc1cccc(NC(=O)/C=C/c2ccccc2)c1	0.12	1.88
CCc1ccc(NC(=O)C2=CC(c3ccc(OC)cc3)=NS(=O)(=O)N2C)cc1	1.69	-1.54
CN(C)C(=O)N1CCN(S(=O)(=O)c2ccc3ccccc3c2)CC1	0.51	0.32

# (more compounds)
structure	KCNQ2 enhance	KCNQ2 enhance baseline
COc1ccc(S(=O)(=O)CCC(=O)Nc2c(C)cccc2C)cc1	0.33	-0.11
CNc1c([N+](=O)[O-])cnn1-c1cccc(Cl)n1	0.62	1.85
Nc1[nH]n2c(=O)c3c(nc2c1N=Nc1ccccc1)CCCC3	4.73	-0.71
Cc1cc(NC(=O)c2cccc(Cl)c2)n[nH]1	0.46	-0.03
CSc1ccc(CCNS(=O)(=O)c2c(C)[nH]c(C)c2C(=O)N2CCCCC2)cc1	0.91	2.11
COCCSc1ccccc1C(=O)Nc1ccc2c(c1)OCCO2	0.04	0.02
COc1ccc(C2OCC3(CO2)SC(=O)NC3=O)cc1 (stereo not given)	0.51	0.75
Cc1ccccc1Cn1nnc(C(=O)Nc2ccc3c(c2)OCCO3)c1N	0.36	-1.06
O=S1(=O)CCO[C@H]2Cc3ccccc3[C@H]2N1Cc1ccccc1F	0.12	0.36
COc1ccc(Cn2c(=O)[nH]c3cc(C(=O)NCCc4ccc(S(N)(=O)=O)cc4)ccc3c2=O)cc1	1.46	0.57

# The results go on.
structure	KCNQ2 enhance	KCNQ2 enhance baseline
CS(=O)(=O)N(CC(=O)N1CCN(Cc2ccccc2)CC1)Cc1ccccc1	0.85	-1.16
Cn1nc(OC(=O)Nc2ccc(F)cc2)cc1C(F)(F)F	0.42	-0.57
Cc1cc(C)c(NC(=O)Cn2nnc(C(=O)NCc3cccs3)c2N)c(C)c1	0.09	-1.23
CCCCn1nnc(NC(=O)c2ccc(-c3cccc([N+](=O)[O-])c3)o2)n1	0.8	-0.92
CC(=O)OCc1c(C)cc(C)c(/C=C(/C#N)C(N)=O)c1C	1.8	1.14
O=S(=O)(c1ccc(Br)cc1)N1CCn2c(nc3ccccc32)C1	0.2	-0.65
CC1(C)CNc2cc(N)ccc2S1	1.11	0.98
COc1cc2c(cc1OC)C(C(=O)N(C)Cc1ccccc1)C(c1cccnc1)N(C)C2=O (stereo not given)	0.87	0.98
O=C(CN1CC(=O)Oc2ccccc21)OCC(=O)c1ccccc1	1.38	0.47
CCC(=O)Nc1cccc(C(=O)OCC(=O)c2ccccc2Cl)c1	0.89	-0.32

# New compounds follow
structure	KCNQ2 enhance	KCNQ2 enhance baseline
CNC(=S)N1N=C(c2ccc(C)cc2)CC1c1ccc(N(C)C)cc1 (stereo not given)	0.08	-0.05
CCCCOc1ccc(N(CC(=O)NC2CCCC2)C(=O)CCC(=O)Nc2ccccn2)cc1	1.56	0
CCCn1c(=O)c(C(=O)NNC(=O)c2cccc([N+](=O)[O-])c2)c(O)c2ccccc21	1.68	-0.74
CSc1nnc(-c2cnccn2)n1CCCN1CCCC1=O	2.56	-0.92
Cc1nnc(-c2cnn(C)c2N)n1Cc1cccc(Cl)c1	0.93	-0.25
Cc1nnc(SCC(=O)NC23CC4CC(CC(C4)C2)C3)n(N)c1=O	1.66	0.77
O=C(c1ccc(N2C(=O)C3CCCCC3C2=O)cc1)N1CCCCC1 (stereo not given)	0.26	0
CCCNC(=O)NC(=O)COC(=O)c1oc2ccc(OCC)cc2c1C	0.12	2.72
CN(C)CC(O)COc1ccc(C(C)(C)c2ccc(OCC(O)CN(C)C)cc2)cc1 (stereo not given)	0.14	-0.04
O=C(O)C1CCN(C(=O)COc2ccc3c4c(c(=O)oc3c2)CCC4)CC1	0.35	-0.03

# Next records
structure	KCNQ2 enhance	KCNQ2 enhance baseline
Cc1cc([N+](=O)[O-])nn1CC(=O)NCc1ccco1	0.39	-0.03
CCOc1ccccc1N1CCN(C(=O)c2cc[n+]([O-])cc2)CC1	0.11	-0.31
COc1ccc(C(=O)Nc2cc(C)nc3ccccc23)cc1OC	0.49	0.1
O=C1Oc2ccccc2C2(O)C3CCCCCC3C12 (stereo not given)	0.01	-1.52
c1ccc(N2CCN(c3nc4ccccc4n4cnnc34)CC2)cc1	0.14	-0.85
CN(C)c1ccc(/C=C(\NC(=O)c2ccccc2)C(=O)NCCCN2CCOCC2)cc1	1.6	0
COC(=O)C(C)NC(=O)c1cn(-c2ccccc2OC)c(=O)c2ccccc12 (stereo not given)	0.07	-2.02
CCc1ccc(C(=O)CC2(O)C(=O)N(CN3CCOCC3)c3ccccc32)cc1 (stereo not given)	0.02	-0.7
Nc1nc(Nc2ccc(Cl)cc2)n[nH]1	1	-0.03
COc1cc(Cl)c(CN2CCC(CO)(CCOc3ccccc3)CC2)cc1OC	1	-0.02
